LANA-H2A inh – blocks KSHV LANA binding to histone H2A/H2B; inhibition, % (test concentration not listed); cell-free LANA-H2A/H2B peptide, fluorescence polarization; actives 0.6% (n = 320,000); Q9QR71; AID 2629; in the data active means inhibition mostly above about 10%, no sharp cut-off; inactive means mostly below about 6.7%;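 further: stock transfer was 7.5 nL into about 10 µL; 0% = median of vehicle wells and 100% = median of positive control wells; one replicate is shown; the record names a cut of 25% in any replicate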
Target sequence (Q9QR71 whole entry, looked up): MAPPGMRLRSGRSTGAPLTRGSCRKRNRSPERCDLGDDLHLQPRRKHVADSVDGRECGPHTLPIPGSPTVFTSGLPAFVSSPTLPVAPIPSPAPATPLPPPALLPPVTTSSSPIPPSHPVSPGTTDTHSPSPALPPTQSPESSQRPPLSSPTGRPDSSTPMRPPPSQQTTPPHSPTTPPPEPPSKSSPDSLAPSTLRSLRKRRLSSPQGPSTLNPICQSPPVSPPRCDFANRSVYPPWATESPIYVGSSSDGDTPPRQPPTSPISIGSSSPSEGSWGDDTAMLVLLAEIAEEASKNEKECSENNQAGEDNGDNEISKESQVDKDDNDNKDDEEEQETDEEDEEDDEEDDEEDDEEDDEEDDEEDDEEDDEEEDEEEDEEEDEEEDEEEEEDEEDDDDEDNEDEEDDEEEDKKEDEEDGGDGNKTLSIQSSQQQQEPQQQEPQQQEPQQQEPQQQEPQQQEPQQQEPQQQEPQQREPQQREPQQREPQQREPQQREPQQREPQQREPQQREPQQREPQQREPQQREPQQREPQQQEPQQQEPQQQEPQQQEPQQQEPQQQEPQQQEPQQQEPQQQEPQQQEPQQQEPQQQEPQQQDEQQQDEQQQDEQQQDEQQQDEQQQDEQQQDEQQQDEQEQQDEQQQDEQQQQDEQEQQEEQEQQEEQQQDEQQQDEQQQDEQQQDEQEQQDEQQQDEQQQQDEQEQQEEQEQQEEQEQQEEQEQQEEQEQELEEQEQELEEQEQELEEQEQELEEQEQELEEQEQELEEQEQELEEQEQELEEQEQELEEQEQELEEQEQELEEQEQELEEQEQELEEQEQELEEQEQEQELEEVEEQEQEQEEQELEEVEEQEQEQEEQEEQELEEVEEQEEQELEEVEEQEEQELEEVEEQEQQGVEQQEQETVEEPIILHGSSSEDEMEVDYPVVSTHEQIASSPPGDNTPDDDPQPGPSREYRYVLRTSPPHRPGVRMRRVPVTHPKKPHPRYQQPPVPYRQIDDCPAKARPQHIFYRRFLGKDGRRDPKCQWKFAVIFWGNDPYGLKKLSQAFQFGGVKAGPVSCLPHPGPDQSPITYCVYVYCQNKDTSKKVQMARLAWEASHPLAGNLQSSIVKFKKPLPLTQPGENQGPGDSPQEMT
Beta apoptosis – beta cell apoptosis inhibition. protection from apoptosis, % (no concentration beside the values). actives 0.8% (n = 300,000). INS-1E cytokine-induced death, ATP luminescence, 48 h; percent of positive-control rescue, neutral wells zero. AID 435005;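 active means all replicates at 75% or more, or half of them and the mean; inconclusive means half reach 75% but not the mean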;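 further: 0% = cytokine-treated negative control wells and 100% = positive control rescue; higher means more ATP so stronger rescue from cytokine killing; wells of about 40 µL received 100 nL stock; the first replicate is given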
MLL AF4-AF9 inh – MLL-AF4/AF9 protein interaction inhibition | AlphaScreen, biotin-AF4 peptide binding to FLAG-AF9 | inhibition, % at 10 µM | actives 0.47% (n = 350,000);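 active means every replicate reaching a set inhibition limit, whatever the replicate mean, cut at about 25% in these data; inconclusive means mean inhibition reaches that limit but some replicates miss it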;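 further: 0% = plate neutral control median and 100% = total signal loss; the record names both 10 and 1 µM as test concentration; the first replicate is given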
Calb FLC – C. albicans growth modulation with fluconazole. C. albicans CaCi-2 (fluconazole-resistant clinical isolate) + fluconazole, Alamar Blue growth, 48 h. growth inhibition, % (no concentration beside the values). actives 0.57% (n = 300,000). AID 1979;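 active means most replicates above 75%; inconclusive means exactly half above 75%; inactive means most below 75%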;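 further: all wells also contain fluconazole at 8 µg/ml as a sub-toxic cotreatment; 0% = median of DMSO wells and 100% = median of geldanamycin control wells; wells of about 8 µL received 7.5 nL stock; the first replicate is given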
RanGTP-Imp inh – inhibitors of RanGTP-importin-beta interaction, primary screen, biochemical, FRET, CFP-Ran, YFP-importin-beta, homogeneous; inhibition, % (concentration not given with the values); AID 2216; actives 1.1% (n = 300,000); cell-free CFP-Ran/YFP-importin-beta FRET ratio;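 active means most replicates above 15%; inconclusive means exactly half above 15%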;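 further: 0% = DMSO wells and 100% = Ran loaded with GDP instead of GTP; wells of about 40 µL received 100 nL stock; the first replicate is given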
Vif A3G – inhibitors of Vif binding to APOBEC3G peptide, primary screen, biochemical, TR-FRET, GST-Vif 1-94, biotin-A3G peptide, dose response retest (AID 1117319); TR-FRET GST-Vif / biotin-A3G peptide binding; higher % means a stronger effect; test concentration not given here; strong numbers were not always called active; inhibition, %, or IC50 in µM where a hit was titrated; actives 0.57% (n = 260,000);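 active means above the screen mean plus three standard deviations and confirmed in dose response; inconclusive means results disagree or hit not tested in dose response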;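 further: Vif residues 1-94 fused to GST binding biotinylated APOBEC3G peptide 110-148; 0% = full assay without inhibitor and 100% = GST in place of GST-Vif; retest series ran down from 100 µM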
T cruzi inh – blocks replication of Trypanosoma cruzi; T. cruzi beta-gal in NIH3T3, luminescence, 90 h; inhibition, % (test concentration not listed); actives 1.4% (n = 300,000);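 active means mean inhibition across valid replicates above about 55%, limit read from the data; inconclusive means mean below that limit but half or more replicates reach it; inactive means mean below it, under half of replicates reach it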;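 further: signal also drops with host cell toxicity which is not excluded here; 0% = plate median of DMSO wells and 100% = zero luminescence signal; higher percent means less beta-gal luminescence so fewer parasites; stock transfer was 50 nL into about 50 µL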
A1 inh – inhibitors of the anti-apoptotic protein A1, read as caspase activation | MEF A1-2A-BIM cells, Caspase-Glo 3/7 luminescence, 3 h; percent of clofoctol response, vehicle zero | caspase activation, % (no concentration beside the values) | actives 0.066% (n = 330,000) | AID 2462;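 active means over half of replicate activation scores above 10%, or exactly half above 10 with the replicate mean above 10; inconclusive means replicate mean below 10 yet half the replicates above 10; inactive means over half of replicates below 10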;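 further: wells of about 30 µL received 50 nL stock; many hits fall short of the cut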
Active calls of the source: *; ? = inconclusive; . = no result given; & = joins results of further samples.

SMILES	LANA-H2A inh	Beta apoptosis	MLL AF4-AF9 inh	Calb FLC	RanGTP-Imp inh	Vif A3G	T cruzi inh	A1 inh
Cc1cc(C)nc(NS(=O)(=O)c2ccc(NC(=O)c3cccc(N4C(=O)CCC4=O)c3)cc2)n1	1.1	.	.	?	-0.8	4.3%	-13.0	0.2
CC(C)(C)NCCOCCOc1ccc(Cl)cc1C(C)(C)C	0.9	-1.0	2.1	-35.4	6.9	7.2%	36.3	1.2
COc1ccc2cc(CN(CCc3ccccc3)Cc3nnnn3CC3CCCO3)c(=O)[nH]c2c1 (stereo not given)	1.2	-2.0	.	3.3	3.2	1.7%&-3.0%	52.5	1.4
COc1ccc(NS(=O)(=O)c2ccc(S(=O)(=O)N(C)C)cc2)cc1S(N)(=O)=O	3.0	-1.5	1.6	4.3	5.4	.	0.4	0.6
COc1ccc(NC(=O)OCCn2c([N+](=O)[O-])cnc2C)cc1	0.3	0.2	-0.4	-9.9	0.8	-5.7%	0.9	-4.7
CC(=O)Nc1sc2c(c1C(c1cccc(F)c1)N1CCN(CCO)CC1)CCCC2 (stereo not given)	9.9	-3.1	7.1	-5.5	-1.0	15.2%	-41.5	-0.4
Cc1nc2c(C)cccc2cc1C(=O)N/N=C/c1cccc([N+](=O)[O-])c1	-4.1	3.8	7.5	-1.9	1.8	20.1%	5.2	-0.7
CC(C)(C)c1csc(NC(=O)Cc2ccc(S(=O)(=O)N3CCOCC3)s2)n1	.	-0.1	1.1	-6.6	2.0	5.8%	5.3	1.5
COc1ccc(-c2nc3c4ccccc4ccn3c2CN2CCCCC2)cc1	-5.2	7.4	16.4	?	-5.7	4.9%	51.5	0.3
COc1ccc(C)cc1-n1nnnc1SCn1nnc2ccccc2c1=O	3.3	49.6	.	-21.9	-2.5	3.3%	20.8	-0.2
COC(=O)Cc1nnc(SCC(=O)Nc2ccccc2)c2ccccc12	4.1	-12.9	-3.8	-2.7	-2.4	-3.6%	-3.0	-0.2
CCN(CC)C(=O)c1[nH]cnc1C(=O)Nc1cccc(C)c1	-3.3	-5.2	2.4	.	.	.	.	0.7
Cc1cccc(N2CC(C(=O)Nc3nnc(SCc4ccccn4)s3)CC2=O)c1 (stereo not given)	-0.1	-3.2	-7.1	4.3	-2.5	.	-5.9	0.1
CCOC(=O)/C(N=Nc1cc(C(=O)O)cc(C(=O)O)c1)=C(\O)CCl	-2.3	1.2	.	-1.3	3.7	.	-2.8	-2.2
COc1ccc(Nc2nc(N3CCCCC3)nc3ccccc23)c(OC)c1	2.6	17.2	.	4.1	3.1	-4.9%	57.8*	-0.1
COc1ccc(C)cc1NC(=S)NNC(=O)c1c(Br)cnn1C	-0.5	8.5	-6.5	72.4*	-0.1	-1.6%	-14.2	0.9
COc1ccc(CN2C(=NC(=O)COc3ccccc3)SC3CS(=O)(=O)CC32)cc1 (stereo not given)	4.2	1.1	-0.4	6.5	-1.1	2.7%	6.7	0.6
N#CCCn1cc(C(=O)N2CCOCC2)c(-c2ccc3c(c2)OCCO3)n1	-491.2	-6.1	-2.9	25.0	?	23.1%	-6.9	-0.6
CCCCn1c(=O)nc2n(-c3ccc(OC)cc3)c3ccccc3cc-2c1=O	1.9	3.5	-0.5	?	8.8	-3.8%	5.8	0.9
CCCCOC(=O)C1=C(C)NC(=O)NC1c1cccc([N+](=O)[O-])c1 (stereo not given)	0.5	.	0.1	3.4	0.3	19.9%	-6.0	-0.1
COC(=O)c1cc(-c2cccs2)[nH]n1	4.1	-6.3	-0.6	-8.8	-2.1	-1.6%	-3.8	-0.4
COC(=O)c1sccc1NC(=O)c1ccnn1C	-8.5	7.5	-0.9	.	.	.	-5.4	-0.1
COc1ccc2c(c1)C(=NNc1ccc(C(=O)O)cc1)c1cc(OC)ccc1-2	-0.8	-12.2	-3.3	29.1	1.9	.	-0.6	-0.4
Cc1cccc(C(=O)Nc2nsc(N)n2)c1	-1.7	1.8	4.9	-4.3	0.5	.	-13.9	-0.1
CN(CCCC(=O)NC1CC(C)(C)NC(C)(C)C1)S(=O)(=O)c1ccc([N+](=O)[O-])cc1	0.8	-1.5	-0.2	-5.9	4.5	2.2%	-7.3	0.2
Remaining list, next part.
SMILES	LANA-H2A inh	Beta apoptosis	MLL AF4-AF9 inh	Calb FLC	RanGTP-Imp inh	Vif A3G	T cruzi inh	A1 inh
O=C(Cc1cn2ccsc2n1)OCc1nc2ccccc2s1	-1.1	-6.2	.	-11.9	-1.7	5.5%	-5.8	-1.4
COc1ccc(-c2cccc(C3CC=CC4C3C(=O)N(Cc3ccccc3)C4c3ccc(C(F)(F)F)cc3)c2)cc1 (stereo not given)	-3.3	1.2	1.9	-5.9	-2.0	.	13.5	0.1
CCOC(=O)C1(C(=O)O)NC(=O)CC1c1ccccc1 (stereo not given)	2.1	2.2	.	-17.3	2.8	1.7%	-13.5	-0.5
Cc1ccc2cc(CN(Cc3cccs3)C(=O)c3ccco3)c3nnnn3c2c1C	-2.6	1.4	.	-0.3	-4.3	27.4%	12.2	-0.2
COc1ccccc1OCC(=O)NCCSCc1cccc(Cl)c1	2.8	-2.1	.	8.7	1.6	1.6%	-5.0	0.3
Cc1ccc(NC(=O)c2cc(N3C(=O)C4CCCCC4C3=O)ccc2N2CCOCC2)cc1 (stereo not given)	-3.7	-2.9	-0.6	4.7	-5.1	.	-6.8	0.7
COc1ccc(NC(=O)CN(C)C(=O)c2cn(-c3ccccc3)nc2-c2ccc(OC)cc2)cc1	-3.1	-1.6	3.5	.	.	19.2%	.	0.8
COc1ccc(NC(=O)COC(=O)c2n[nH]c3ccccc23)c(OC)c1	0.2	-3.6	-1.2	.	.	.	.	-0.7
COc1ccc(N2CCN(C(=S)NCCc3ccccc3)CC2)cc1	-3.1	1.2	.	-14.9	?	2.3%	-16.0	0.8
COc1ccc(N2CCN(C(=O)c3ccc(C)c(NC(=O)c4ccco4)c3)CC2)cc1	3.2	4.2	2.4	13.8	-5.4	2.0%	-4.0	1.1
COc1cccc(CNC(=O)c2nnn(-c3ccc(OC(F)(F)F)cc3)c2N)c1	1.1	-0.7	.	-1.5	-0.5	0.8%	-5.3	-1.2
COC(=O)C(C(=O)NCC1CCCO1)C1CCCCCC1 (stereo not given)	4.4	2.1	.	-1.3	2.1	-0.1%	-8.4	0.0
CC(C)(C)c1cc(NC(=O)CCSc2nnc3ccccn23)cc(C(C)(C)C)c1	-2.0	9.7	.	-15.9	3.8	-5.5%	39.4	-0.9
COc1cccc(-c2cnc(OC(C)(C)C)nc2OC(C)(C)C)c1	-1.3	11.0	.	-4.4	?	-1.7%	-4.4	0.3
N/C(=N\OC(=O)N1CCOCC1)c1ccccc1	0.3	1.9	.	-7.8	5.4	4.6%	45.2	-1.9
NS(=O)(=O)c1ccc(NC(=O)c2ccc3c(c2)CCCC3)cc1	1.1	-1.4	1.5	-8.7	4.8	.	-34.7	3.7
CC(=O)Nc1ccc(C23CC4CC(CC(C4)C2)C3)cc1	-0.9	1.1	-8.8	-25.2	26.4*	-13.8%	5.3	-0.4
N=c1c2c(-c3ccccc3)c(-c3ccccc3)oc2ncn1CCCN1CCOCC1	-0.9	.	.	21.8	-2.2	-4.1%	15.2	0.1
COCCn1c(=O)[nH]c2cc(C(=O)N3CCN(c4ccccc4)CC3)ccc2c1=O	0.4	0.2	.	-4.5	4.4	.	0.9	1.0
Cc1cc(NC(=O)Nc2ccc(Cl)cc2)n(C)n1	1.6	-4.2	-1.6	-25.4	-1.2	1.4%	-5.5	-0.3
COc1ccc(-c2nn(-c3ccccc3)cc2CNC(=O)c2cccc([N+](=O)[O-])c2)cc1	-0.9	24.0	3.4	15.4	-2.9	16.2%	66.4*	0.2
CS(=O)(=O)N(CC(=O)NCCSCc1ccco1)c1ccc2c(c1)OCO2	-21.8	-5.2	-0.7	?	-1.7	.	-6.6	0.0
CC(=O)Nc1ccc(S(=O)(=O)N2CCc3cc4c(cc3C2C)OCCCO4)cc1 (stereo not given)	0.1	-0.5	3.5	-1.1	10.5	.	14.0	0.0
CC1CCCC(C)N1C(=O)CSCc1ccc(Cl)cc1 (stereo not given)	0.0	-7.1	.	-2.3	-7.7	26.6%	1.9	-1.0
COc1ccc(C2CCCN2C(=S)Nc2cccc(C)c2)cc1OC (stereo not given)	5.3	-8.2	-5.9	-4.8	8.2	3.5%	-6.4	-0.4
Next part
SMILES	LANA-H2A inh	Beta apoptosis	MLL AF4-AF9 inh	Calb FLC	RanGTP-Imp inh	Vif A3G	T cruzi inh	A1 inh
CC(C)C(=O)Nc1c(-c2cccc(Cl)c2)c(=O)c2ccccc2n1C	3.2	1.0	-3.0	2.5	1.0	-8.1%	-7.3	0.5
O=c1c(CN2CCN(Cc3ccccc3F)C(CCO)C2)coc2ccccc12 (stereo not given)	1.1	-4.7	-0.3	2.4	0.4	.	6.1	0.2
Cc1ccc(S(=O)(=O)N2CCC(c3nc4c(nnn4Cc4ccccc4)c(=O)[nH]3)CC2)cc1	0.4	-4.0	-1.5	14.7	2.0	4.2%	14.5	0.2
C/C(=N/NC(=O)Cn1nc2ccccc2n1)c1ccc(F)cc1	-4.4	-6.9	.	-4.8	0.2	-9.0%	-6.2	0.5
O=C(NCC(c1ccc(F)cc1)N1CCOCC1)c1nn(-c2ccccc2)c(=O)c2ccccc12 (stereo not given)	-5.4	-8.3	2.1	.	.	1.8%	.	0.4
Clc1ccc(N=C2SCC3CCCCN23)cc1 (stereo not given)	-13.0	-0.3	0.0	5.3	-1.5	-1.7%	-2.9	-2.0
COc1cccc(-c2nnc(SCC(=O)N3CC(C)CC(C)C3)o2)c1 (stereo not given)	1.2	0.5	-2.5	11.5	-5.8	12.9%	-2.1	0.0
CCCOC(=O)c1c(N)sc2c1CCC2	5.7	-5.2	.	-2.1	-1.5	?	-11.7	-0.7
Cc1cc(C(=O)OCC(=O)NC(C)(C)C)c2ccccc2n1	3.8	-6.0	-4.8	-2.6	2.5	0.7%	-29.2	0.6
Cc1ccccc1-c1nnc(SCc2ccccc2F)o1	2.0	4.8	.	-3.9	-2.4	-1.8%	25.1	0.4
O=C(Nc1nn[nH]n1)c1cc(-c2ccc(Cl)c(Cl)c2Cl)nc2ccccc12	0.6	-0.8	-9.9	16.0	2.6	8.7%	-7.6	0.6
COCCn1c(SCC(=O)N2CCCc3ccccc32)nc2c(c1=O)SC(C)C2 (stereo not given)	-1.2	4.1	-1.3	0.7	?	3.5%	17.4	0.2
CN(C)c1nc(-c2ccccc2)c2cnn(Cc3ccccc3)c2n1	-2.8	.	-22.5	6.7	9.6	-1.9%	29.5	-0.2
CNC(=S)N(Cc1ccco1)Cc1cc2cc(OC)ccc2[nH]c1=O	-0.2	-0.5	-2.2	-34.7	5.4	-1.5%	12.9	-0.3
COc1ccc(-n2nc(C(=O)NCC(=O)N3CCN(Cc4ccccc4)CC3)c3ccccc3c2=O)cc1	-3.4	11.1	-0.1	7.6	-1.9	.	11.3	-0.2
O=c1[nH]c(/C=C\c2ccc(O)c(Cl)c2)nc(O)c1[N+](=O)[O-]	-3.3	-1.9	1.0	-4.1	2.3	-0.1%	13.6	1.6
COc1cc(Cl)ccc1NC(=O)COc1ccccc1C(=O)N1CCN(c2ccc(O)cc2)CC1	5.7	3.5	.	1.3	2.7	?	17.4	-0.2
Cc1c(C(=O)Nc2ccc(S(=O)(=O)N3CCOCC3)cc2)cccc1[N+](=O)[O-]	-6.5	-12.1	0.5	-7.0	-0.6	.	-6.5	0.0
CSc1ccc(/C=N/NC(=O)c2ccc(-n3cnnn3)cc2)cc1	-6.7	2.5	-2.5	.	.	-4.8%	.	0.0
O=S(=O)(Cc1ccccc1)N1CCC(c2nc(-c3cccs3)no2)CC1	-3.1	-2.9	-6.2	2.0	1.1	-0.1%	12.4	0.9

Screening results (PubChem)
